# From PubChem
# BLM helicase inh = Bloom syndrome helicase (human) inhibition. Potency, µM (top dose mostly 56.1 µM), for the others: at the top dose activity change, negative = inhibition, usual class: inhibitors. P54132. recombinant BLM DNA unwinding, fluorescence dequenching. hit rate 0.2% among 350,000. AID 2528;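 further: potency means the concentration at half of the fitted maximal effect; plate controls were vehicle for no effect and no enzyme for full effect; nearly all actives have a fitted effect of over 35% in size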
# ERG-DNA inh = ERG Ets/DNA interaction inhibition | fluorescence polarization, His-ERG Ets domain / labelled DNA | Potency, µM (series often up to 76.9 µM), inactives show at the top dose FP activity, negative = inhibition, most hits filed as inhibitors | hit rate 0.028% among 370,000 | AID 624246; active means well fitted inhibition curve with a large enough effect in the polarisation, with a control signal flat; inconclusive means small, poorly fitted or top-dose-only effect, or effect the other way, or a change in a side signal; inactive means no such curve, though single readings can be large or run the other way; the % refers to the polarisation;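 further: polarization taken with two DNA probes labelled with fluorescein and Texas red; potency means the concentration at half of the fitted maximal effect; % of control where 0% means no effect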
# Target sequence (P11308 whole entry, looked up, the tested form may be a part): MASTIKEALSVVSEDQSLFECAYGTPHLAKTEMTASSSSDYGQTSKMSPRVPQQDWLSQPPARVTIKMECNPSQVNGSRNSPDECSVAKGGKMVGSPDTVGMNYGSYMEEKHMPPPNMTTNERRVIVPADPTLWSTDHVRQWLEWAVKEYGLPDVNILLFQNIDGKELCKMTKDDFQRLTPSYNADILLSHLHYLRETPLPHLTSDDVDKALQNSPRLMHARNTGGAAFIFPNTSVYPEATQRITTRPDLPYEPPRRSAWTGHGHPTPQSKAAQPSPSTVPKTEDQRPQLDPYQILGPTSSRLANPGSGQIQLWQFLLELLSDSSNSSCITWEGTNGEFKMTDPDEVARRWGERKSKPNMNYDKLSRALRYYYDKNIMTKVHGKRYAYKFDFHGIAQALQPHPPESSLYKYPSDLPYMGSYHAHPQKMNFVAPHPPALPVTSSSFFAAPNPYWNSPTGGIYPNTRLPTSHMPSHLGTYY
#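 His-tagged ERG Ets domain (1 uM in the protein solution; 300mM KCl, 50mM Tris-HCl, 1mM EDTA, 1mM DTT, pH 7.5) received compound, then a probe mix of 5 nM fluorescein-DNA and 100nM Texas-615-DNA. Fluorescence polarization was read for both dyes.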
# Apoferritin bind = binds horse apoferritin like a general anesthetic. Potency, µM (titrated, usually from 77.5 µM), inactives show at the top dose activity change, negative = displacement, hits mostly inhibitors. P02791. apoferritin/1-aminoanthracene competitive binding, fluorescence. hit rate 0.074% among 350,000; further: potency means the concentration at half of the fitted maximal effect; on the % scale 0 is the no-effect control and ±100 the full control effect; nearly all actives have a fitted effect of over 20% in size
# Target sequence (P02791 2-175 limits assumed): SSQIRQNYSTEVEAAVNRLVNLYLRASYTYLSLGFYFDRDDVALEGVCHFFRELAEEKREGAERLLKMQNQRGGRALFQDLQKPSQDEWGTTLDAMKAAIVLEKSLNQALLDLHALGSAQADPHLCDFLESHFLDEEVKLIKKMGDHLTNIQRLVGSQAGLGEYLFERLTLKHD
#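 In PBS, apoferritin at 10 uM is loaded with 1-AMA from a 50% saturated solution. After 10 min of compound exposure at ambient temperature, reduced 535 nm fluorescence indicates probe displacement.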
# POLK inh = DNA polymerase kappa (human) inhibition | Potency, µM (series often up to 107 µM), for the others: at the top dose activity, negative = inhibition, most hits filed as inhibitors | AID 588579 | purified Pol kappa, fluorescent DNA synthesis assay, 10 min | Q9UBT6 | hit rate 0.53% among 400,000; further: potency means the concentration at half of the fitted maximal effect; on the % scale 0 is the no-effect control and ±100 the full control effect
#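 Kinetic fluorescence readout at 0 and 10 min followed reaction start with substrate at 50 nM final. Beforehand, enzyme (10 nM Pol kappa) stood 15 min with compound at room temperature; buffer-only wells were negative controls.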
# ALOX12 inh = blocks human arachidonate 12S-lipoxygenase; purified 12hLO, xylenol orange hydroperoxide absorbance; Potency, µM (top dose mostly 108 µM), inactives show top-dose activity change, negative = inhibition, actives largely listed as inhibitors; hit rate 1.1% among 580,000; AID 1671190; P18054; further: potency means the concentration at half of the fitted maximal effect; on the % scale 0 is the no-effect control and ±100 the full control effect
#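 Purified human 12hLO (150 nM final) in 25 mM Hepes, 0.01% Triton X-100, pH 7.0 was preincubated 15 min at room temperature with compound. Then 40 uM arachidonic acid was added, 30 min. Hydroperoxide was read by Fe-XO absorbance ratio 573/405 nm.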
# TRHR ag = agonists of human TRH receptor. TRHR cells, calcium flux fluo-8, FDSS agonist mode. P34981. activation, % at 2 µM. hit rate 0.18% among 360,000; in the data active means activation above about 30%; further: 0% is about no effect
# Target sequence (P34981 whole entry, looked up): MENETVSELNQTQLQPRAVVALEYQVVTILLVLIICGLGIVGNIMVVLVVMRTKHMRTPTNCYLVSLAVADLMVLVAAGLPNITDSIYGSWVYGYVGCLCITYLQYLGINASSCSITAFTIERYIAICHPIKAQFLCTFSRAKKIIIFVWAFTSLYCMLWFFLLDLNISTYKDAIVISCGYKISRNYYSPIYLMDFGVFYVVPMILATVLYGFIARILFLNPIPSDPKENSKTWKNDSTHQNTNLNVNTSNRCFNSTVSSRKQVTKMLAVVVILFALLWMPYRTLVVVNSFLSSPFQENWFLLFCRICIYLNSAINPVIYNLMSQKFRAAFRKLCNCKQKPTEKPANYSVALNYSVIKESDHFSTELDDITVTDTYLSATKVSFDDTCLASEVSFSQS
#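 Steps: seed TRHR cells overnight; add fluo-8 no-wash Ca dye, RT 30 min–1.5 h; record 10 s baseline; pin-transfer compounds; monitor fluorescence 1 cycle/s for the agonist window. Calcium increases flag candidate agonists.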
# Pol iota inh = blocks human DNA polymerase iota activity. Q9UNA4. Pol iota fluorescent replication assay, 10 min. Potency, µM (top dose mostly 115 µM), inactives show at the top dose activity, negative = inhibition, hits mostly inhibitors. hit rate 1% among 390,000. AID 588590; further: potency means the concentration at half of the fitted maximal effect
#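 Pol iota at 10 nM preincubated 15 min with compounds at room temperature; reaction started with fluorescent substrate, 50 nM final. Fluorescence read kinetically at 0 and 10 min; buffer-only wells as negative control.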
# The depositor's hits bear a star; u = inconclusive; x = no result given; & = joins results of further samples; [ ] = remark or other dose. Unless noted, the call rests on the fitted dose curve; in most records, active means well fitted curve in the direction sought with a large enough effect; inconclusive means small, poorly fitted or top-dose-only effect, or another doubt; inactive means no such curve, though single readings can be large; an effect the other way counts as inactive or inconclusive. The list is partial; the hit share may differ from the screen's.
canonical_smiles,Pol iota inh,ERG-DNA inh,POLK inh,BLM helicase inh,TRHR ag,Apoferritin bind,ALOX12 inh
Cc1cc(=O)oc2cc(OCc3cc4c(cc3Cl)OCO4)ccc12,14%,1%,-18%,2%,-0.1,-8%,-23%
C=CCn1c(N)cc(=O)nc1SCC(=O)Nc1ccc(C)cc1,151%[activator],18%,-3%,3%,0.3,-5%,0%
Cc1cc(C)c(S(=O)(=O)Nc2cccc(-n3cnnn3)c2)c(C)c1,3%,8%,-10%,-1%,-0.3,-21%,10%
CC(C)(C)C(=O)Nc1nc2c(s1)COc1ccccc1-2,22%,-8%,4%,-2%,0.0,0%,0%
CC1=C(/C=C/C(C)=N\NC(=O)c2ccncc2)C(C)(C)CCC1,4%,18%,-15%,-1%,1.0,-10%,19%
Nc1ccn(C2CC(O)C(CO)O2)c(=O)n1 (stereo not drawn),-2%,0%,6%,-2%,-0.5,-3%,-15%
Nn1c(SCC(=O)Nc2ccc(S(N)(=O)=O)cc2)nnc1C(F)(F)F,-17%,-7%,10%,-2%,0.9,-8%,14%
N#Cc1ccc(C2=NC(C(F)(F)F)(C(F)(F)F)c3c(n(Cc4ccco4)c(=O)[nH]c3=O)N2)cc1,-1%,3%,-10%,-5%,-0.7,-17%,u
COC(=O)c1cc(O)cc(OC)c1C(=O)c1c(O)cc(C)cc1O,71µM*,-2%,u,-15%,-0.1,-11%,26%
C=CCSc1n[nH]c(-c2ccc(OC)cc2)n1,20%,-4%,-2%,0%,-3.6,-11%,-2%
CCN(CC)C(=O)COC(=O)c1cc(-c2ccco2)nc2ccccc12,14µM*,-5%,79µM*,1%,0.3,u,u
CCOc1ccc(OCCCCn2ccnc2)cc1,11%,x,-3%,3%,0.1,-7%,-22%
COC(=O)C1=C(C)Nc2nnnn2C1c1cccnc1 (stereo not drawn),-4%,-1%,-2%,-3%,-1.3,-1%,-6%
CSc1cc(C)n(-c2ccccc2)c(=S)c1C(C)=O,20%,-4%,-11%,-5%,0.2,3%,-11%
Cc1cc(C)c(S(=O)(=O)Nc2cccc(S(=O)(=O)N3CCOCC3)c2)c(C)c1,21%,12%,-2%,-1%,-0.5,-23%,-1%
CCOC(=O)CN1C(=O)N(c2ccccc2OC)S(=O)(=O)c2ccccc21,24%,2%,-14%,-2%,1.1,2%,12%
COc1cccc(N2CC(C)Cn3c2nc2c3c(=O)[nH]c(=O)n2C)c1 (stereo not drawn),-1%,3%,-2%,-1%,-1.0,3%,0%
CN(C)S(=O)(=O)c1ccc(Cl)c(NC(=O)COC(=O)/C=C/c2cnc3ccccc3n2)c1,15%,11%,-15%,-1%,-0.3,-5%,6%
O=c1c(-c2ccccc2)nc2cnc(Oc3ccccc3)nc2n1Cc1cccs1,x,x,0%[60.1 µM],-5%,x,x,132%[activator]
CCOc1ccc(NC(=O)CN(C)C(=O)c2cccnc2Sc2ccc(Cl)cc2)cc1OCC,-14%,-5%,-7%,x,-0.4,x,-11%
Cc1nc2cc(NC(=O)NCCCO)ccc2o1,79%,3%,-5%,0%,-0.9,-4%,2%
FC(F)(F)c1cnc(Oc2cccc3ccccc23)c(Cl)c1,u,11%,-29%,-1%,-0.2,-15%,22%
CC(=O)c1c(C)[nH]c(C(=O)COc2ccc3ccc(=O)oc3c2)c1C,u,3%,-34%,x,-0.4,x,u
O=C(NNC(=S)Nc1ccc(OC(F)F)cc1)c1cc2c(s1)CCCC2,6%,-5%,-9%,-2%,-1.0,-21%,-23%
C1=C(c2ccccc2)Nc2ccccc2N=C1c1ccccc1,-4%,2%,-6%,-6%,-0.3,-16%,-11%

# The list goes on:
canonical_smiles,Pol iota inh,ERG-DNA inh,POLK inh,BLM helicase inh,TRHR ag,Apoferritin bind,ALOX12 inh
CN(CC(=O)Nc1ccccc1Cl)CC(=O)Nc1sc2c(c1C(N)=O)CCC2,u,u,-4%,x,-0.2,x,3%
CC(=O)c1cc(C#N)c(N2CCCC2)nc1C,98%[activator],3%,0%,2%,0.4,-2%,u
Cc1cc(/C=C(/C#N)c2nc3ccccc3[nH]2)c(C)n1-c1cc(C(=O)O)cc(C(=O)O)c1,u,2%,40µM*,-5%,15,-7%,u
C=CCn1c(CCNC(=O)c2cccs2)nnc1SCC(=O)Nc1cccc(F)c1,41%[activator],-2%,0%,0%,-0.4,9%,15%
O=C(O)c1ccc2nc(-c3cc4cccc(O)c4oc3=O)[nH]c2c1,u,8%,u,-11%,0.4,91%[activator],-30%
Cc1ccccc1C(=O)NNC(=S)NC(=O)c1ccc(Cl)cc1Cl,28%,x,-7%,-2%,45*,37%[activator],u
O=C(CCS(=O)(=O)c1cc2c(cc1Cl)NC(=O)CO2)NCCc1ccccc1,20%&122%,5%&5%,-3%&1%,1%&2%,-0.6&-0.3,-4%&2%,-23%&-24%
O=C(NCc1ccc2c(c1)OCO2)c1cccc(N2CCCC2=O)c1,0%,2%,5%,-1%,-0.8,-10%,u
O=C(O)COCC(=O)Nc1ccc(OCCc2ccccc2)cc1,16%,6%,-12%,-1%,0.3,-13%,3%
Cc1nn(C)cc1S(=O)(=O)NCc1ccc2c(c1)OCO2,9%,-3%,-4%,-1%,0.9,-2%,0%
O=c1c2ccccc2nc2c3ccccc3c(NCCN3CCOCC3)nn12,x,x,x,174%[activator],-0.4,-15%,-18%
COc1ccc(N2CCCCn3c2nc2c3c(=O)[nH]c(=O)n2C)cc1,22%,5%,-11%,3%,-0.5,3%,-11%
CC(=O)c1ccc(NC(=O)c2ccc(N3C(=O)c4cccnc4C3=O)cc2)cc1,13%,0%,3%,-15%,0.6,0%,-15%
O=C1NC[C@H](Cc2ccccc2)N(CC2CCCCC2)C1=O,20%,8%,3%,0%,-0.3,-9%,-12%
CCSc1nnc(NC(=O)C(C)Sc2nc3ccccc3[nH]2)s1 (stereo not drawn),u,-5%,-20%,-3%,0.3,-16%,-14%
CN(Cc1ccccc1)C(=O)CCS(=O)(=O)c1cc2c(cc1Cl)NC(=O)CO2,8%,3%,-4%,1%,0.5,-15%,21%
CC(C)(C)C1N=C(c2ccc3ccccc3c2)OC1=O (stereo not drawn),-7%,5%,-3%,x,0.4,x,-27%
O=C(N/N=C/c1ccoc1)c1ccccc1,u,-2%,-38%,-13%,-0.5,0%,494%[activator]
O=C(CSc1ccc2nnc(CCNC(=O)c3ccccc3)n2n1)Nc1ccccc1F,24%,1%,-6%,2%,-0.2,-8%,17%
CC(C)CNC(=O)CCCc1ccccc1,-9%,-4%,0%,-1%,-0.2,-9%,-3%
CC1CC(C(F)F)n2nc(C(=O)Nc3sc4c(c3C#N)CCC(C(C)(C)C)C4)nc2N1 (stereo not drawn),12%,9%,-6%,-5%,0.0,4%,-21%[57.4 µM]
CC1CCN(S(=O)(=O)c2cn(CC(=O)Nc3cccc(C#N)c3)cn2)CC1,18%,-5%,4%,-3%,0.6,-3%,27%
COCCN1CCN(Cc2nc(C3(c4ccc(C)cc4)CCCC3)no2)CC1,11%,-2%,-3%,-4%,0.1,-9%,3%
CCOC(=O)C1=C(C)Nc2nnnn2C1c1cccnc1 (stereo not drawn),18%,12%,-3%,-1%,-0.1,-7%,0%
Cc1nnc(SCC(=O)N(C)CC(=O)Nc2ccc(F)cc2)n1Cc1ccccc1,39%[activator],18%,-5%,1%,-1.0,1%,-1%

# Other structures
canonical_smiles,Pol iota inh,ERG-DNA inh,POLK inh,BLM helicase inh,TRHR ag,Apoferritin bind,ALOX12 inh
O=c1c2cc(Cl)cc(Cl)c2nc2n1CCC2,159%[activator],-6%,6%,2%,0.7,-2%,-2%
Cc1[nH]c(=O)[nH]c(=O)c1S(=O)(=O)NCCOC12CC3CC(CC(C3)C1)C2,17%,10%,7%,0%,0.7,-4%,0%
CCC(=O)Nc1cc(-c2cc3ccccc3oc2=O)ccc1OC,-7%,-11%,-2%,-11%,0.1,-14%,-1%
CC(C)[C@H](NC(=O)c1c(F)cccc1F)C(=O)Nc1cccc(Br)c1,50%[activator],-9%,-3%,-2%,-1.1,-12%,3%
O=C(CN(Cc1ccccc1)C(=O)c1ccco1)NCc1ccc(F)cc1,7%,3%,0%,-3%,-0.7,-12%,-10%
COc1ccccc1-c1cncnc1NCc1cccnc1,x,x,-2%[60.1 µM],5%,x,2%,-16%
O=C(NCCCN=C1NS(=O)(=O)c2ccccc21)c1ccc(F)cc1,23%,5%,-12%,-4%,0.6,-5%,11%
O=C(CNc1ccc(C(F)(F)F)cc1[N+](=O)[O-])OCC(=O)c1ccccc1,7%,-1%,-6%,-7%,-0.5,28µM*,151%[activator]
CC1=C(C(=O)Nc2ccccc2)C(c2cccnc2)n2nc(-c3cccnc3)nc2N1 (stereo not drawn),28%,-2%,2%,2%,1.0,-9%,0%
NC(=O)Nc1ccc(C(=O)OCC(=O)Nc2cccc(S(=O)(=O)NC3=NCCC3)c2)cc1,2%,5%,-2%,x,0.2,x,u
COc1ccc(/C=N/Nc2nc(C(=O)O)cs2)cc1,20µM*,-5%,u,5%,0.0,-3%,0%
CCCOc1ccc(NC(=O)C(=O)NCCCn2ccnc2)cc1,21%,-6%,-16%,4%,-0.9,-10%,21%
CC(=O)N1CCc2cc(C(=O)CN3CCCN(Cc4ccc(F)cc4)C3)ccc21,x,x,x,0%,-0.1,-19%,x
CC(=O)N1N=C2c3ccccc3CCC2C1c1cccs1 (stereo not drawn),18%,-3%,1%,-3%,-0.9,-13%,9%
C#CCN1C(=O)C2(OCCO2)c2ccccc21,13%,-4%,3%,-11%,1.0,-1%,u
CCOc1ccccc1-c1nc(-c2ccc(NC(=O)c3ccc(Br)o3)cc2)no1,16%,-7%,-16%,0%,-1.3,1%,67%[activator]
Cc1cccc(C(=O)N/N=C/c2ccoc2)c1,u,4%,u,-10%,-0.2,-3%,0%
C/C=N/NC(=O)c1cc(Br)ccc1O,-11%,3%,-10%,-4%,1.3,-6%,-12%

# Part of the list above in order of SMILES length, ascending:
canonical_smiles,Pol iota inh,ERG-DNA inh,POLK inh,BLM helicase inh,TRHR ag,Apoferritin bind,ALOX12 inh
CCC(=O)Nc1cc(-c2cc3ccccc3oc2=O)ccc1OC,-7%,-11%,-2%,-11%,0.1,-14%,-1%
O=C(CN(Cc1ccccc1)C(=O)c1ccco1)NCc1ccc(F)cc1,7%,3%,0%,-3%,-0.7,-12%,-10%
O=C(CNc1ccc(C(F)(F)F)cc1[N+](=O)[O-])OCC(=O)c1ccccc1,7%,-1%,-6%,-7%,-0.5,28µM*,151%[activator]
